Screening results as filed in PubChem.
Menin-MLL FL inh – inhibitors of human menin-MLL interaction, wild-type MLL peptide; Fluorescence polarization, fluorescein-MLL peptide displacement from menin; FP activity change, % at 61.4 µM; 290,000 tested, under 10 active; inconclusive = falling polarisation curve, or a change in total fluorescence; inactive = total fluorescence flat and polarisation flat or rising; no compound was filed as active; the % refers to the polarisation; negative = inhibition;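 also: % of control where 0% means no effect; inhibitors lower the polarisation; unlabelled MLL peptide was the positive control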
gsp agonist – agonists of gsp mutant (McCune-Albright syndrome). gsp mutant cells, cAMP HTRF, 30 min; control for the full effect not named in the record. Potency, µM (titrated, usually from 76.9 µM), inactives show top-dose activation (cAMP increase), usual class: activators. 340,000 tested, 0.13% active. AID 624287; active = well fitted activation curve with a large enough effect; inconclusive = small, poorly fitted or top-dose-only effect, or another doubt; inactive = no such curve, though single readings can be large or run the other way; cell line not stated here;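 also: phosphodiesterase inhibitor Ro 20-1724 added with compounds to block cAMP breakdown; potency is read from the fitted curve at half-maximal effect; nearly all actives have a fitted effect of over 60% in size; about a fifth of the inactives were tested at one dose only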
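Cells in DMEM/10% FBS with G418 were pretreated with compounds in DMSO plus […] (300 uM stock) for 30 min at 37C. cAMP was measured by HTRF (cAMP-d2 plus anti-cAMP antibody-K) after 30 min at room temperature.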
ClpP mod – qHTS Assay for Activators of ClpP; ATP-dependent Clp protease proteolytic subunit (Bacillus subtilis (strain 168)), P80244; purified B. subtilis ClpP, FRET peptide cleavage, 20 min; Potency, µM (highest dose often 57.5 µM), inactives show at the top dose activity change, negative = active; 340,000 tested, 1.9% active; active = well fitted falling curve with a large enough effect; inconclusive = small, poorly fitted or top-dose-only effect; inactive = no such curve, though single readings can be large or run the other way; also: potency is read from the fitted curve at half-maximal effect; the source files actives as falling curves though it sought activators and does not explain the sign; nearly all actives have a fitted effect of over 65% in size; many hits overshoot -100%
Target sequence (P80244 whole entry, looked up): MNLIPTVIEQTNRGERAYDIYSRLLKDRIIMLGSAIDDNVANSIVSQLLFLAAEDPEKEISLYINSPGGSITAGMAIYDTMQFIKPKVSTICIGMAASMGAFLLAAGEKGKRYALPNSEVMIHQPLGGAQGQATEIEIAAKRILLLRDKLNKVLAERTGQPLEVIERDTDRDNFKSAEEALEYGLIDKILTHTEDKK
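Purified B. subtilis ClpP, 10 microg/mL final in Tris/HCl pH8 with KCl, BSA, glycerol and Tween-20, cleaved an Abz/nitrotyrosine-quenched decapeptide. Fluorescence (ex 320, em 430) was read at 0 and 20 min at room temperature. Delta was normalized to 5.8 microM ADEP and DMSO/no-enzyme controls.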
PINK1 modulator – PINK1 expression modulation; 410,000 tested, 0.2% active; Potency, µM (titrated, usually from 76.6 µM), for the others: at the top dose activation (PINK1 increase), usual class: activators; AID 624263; PINK1 immunofluorescence, high-content cytometry, 24 h; active = well fitted activation curve with a large enough effect; inconclusive = small, poorly fitted or top-dose-only effect; inactive = flat fitted curve, though single readings scatter; cell line not stated here;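 also: potency is read from the fitted curve at half-maximal effect; % of control where 0% means no effect; nearly all actives have a fitted effect of over 65% in size; a mitochondrial uncoupler was the plate control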
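Measures PINK1 amount and localization on or inside mitochondria by immunofluorescence. Stable cells get compounds at 5 concentrations for 24 hours before fixation and staining; CCCP controls included.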
Sfp inh – blocks B. subtilis Sfp PPTase activity | Q9F4F7 | Biochemical Sfp PPTase activity, qHTS | Potency, µM, for inactives: max response, negative = inhibition, hits mostly inhibitors | 310,000 tested, 3.5% active | AID 1490; active = well fitted inhibition curve with a large enough effect; inconclusive = small, poorly fitted or top-dose-only effect, or another doubt; inactive = no such curve, though single readings can be large or run the other way;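 also: the enzyme is Sfp with the accession as filed and its product quenches rhodamine fluorescence; potency is read from the fitted curve at half-maximal effect; 0% = enzyme reaction without inhibitor and -100% = no enzyme wells; top concentration of the series not given in the record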
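Step 1, compound plus 15 nM Sfp-PPTase, 15 min, room temperature. Step 2, add rhodamine-CoA (5 uM) and BHQ-2-YbbR (12.5 uM). Step 3, read 525/598 nm fluorescence at 0 and 30 min.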
D2 agonist – agonists of human D2 dopamine receptor (beta-arrestin); P14416; DiscoveRx PathHunter D2 beta-arrestin, luminescence, 90 min; 100% = 57 uM dopamine signal; activation, % (test concentration not listed); 360,000 tested, 0.084% active; AID 624465; in the data active = activation above about 40%; inconclusive = about 15% to 40%; inactive = below about 15%; also: compound concentration not given in the record; the text of the record calls up to 30% inactive
Target sequence (P14416 whole entry, looked up): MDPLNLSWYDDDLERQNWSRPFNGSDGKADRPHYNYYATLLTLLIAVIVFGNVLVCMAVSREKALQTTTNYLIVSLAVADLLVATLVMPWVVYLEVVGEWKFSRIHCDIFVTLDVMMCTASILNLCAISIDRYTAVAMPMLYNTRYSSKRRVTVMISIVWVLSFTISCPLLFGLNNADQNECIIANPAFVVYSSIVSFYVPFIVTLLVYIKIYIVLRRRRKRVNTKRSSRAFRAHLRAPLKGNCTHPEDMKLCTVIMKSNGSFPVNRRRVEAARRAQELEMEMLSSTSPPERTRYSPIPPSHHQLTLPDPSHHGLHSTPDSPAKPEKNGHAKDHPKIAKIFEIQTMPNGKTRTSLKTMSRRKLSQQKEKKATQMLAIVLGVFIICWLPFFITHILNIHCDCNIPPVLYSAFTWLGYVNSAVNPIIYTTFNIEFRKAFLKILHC
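Agonist mode: compounds alone added to overnight-plated D2 PathHunter cells for 90 min at 37 C, with 57 uM final dopamine (EC100) defining full response. Beta-arrestin recruitment detected by chemiluminescent reagent, read after 1 h at ambient temperature.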
gsp antag – antagonists of gsp mutant (McCune-Albright syndrome); gsp-mutant cells, cAMP HTRF, 30 min; control for the full effect not named in the record; Potency, µM (titrated, usually from 76.9 µM), inactives show top-dose activity change, negative = inhibition, usual class: inhibitors; 340,000 tested, 0.4% active; AID 624288; active = falling curve of any shape with a large fitted effect; inconclusive = falling curve, mostly with a smaller effect; inactive = flat or rising curve; cell line not stated here;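 also: intracellular cAMP measured with PDE inhibitor Ro 20-1724 present during compound exposure; potency is read from the fitted curve at half-maximal effect; % is scaled to controls: 0 for no effect and ±100 for the full control effect; nearly all actives have a fitted effect of over 65% in size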
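Measurement of cellular cAMP by homogeneous time-resolved fluorescence following a 30 min compound exposure at 37C. The PDE inhibitor […] was present throughout; the assay buffer was DPBS with 0.05% BSA and 0.005% Tween 20.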
* hit, by the source's call; u = inconclusive; x = no result given; [ ] = another dose, or the depositor's remark.

SMILES	Menin-MLL FL inh	gsp agonist	ClpP mod	PINK1 modulator	Sfp inh	D2 agonist	gsp antag
O=C(Cc1csc(NC(=O)Nc2cccc(Cl)c2)n1)NCc1ccccn1	x	-7%	3.8%	7.2%	x	1.6	-4%
COCCNC(=S)N1CCN(C(=O)C(=O)Nc2ccc(C(=O)OC)cc2)CC1	3.2	13%	-0.5%	-0.8%	6%	1.1	8%
CC(C)(C)SCCNC(=O)CN(c1ccc(F)cc1)S(C)(=O)=O	10	1%	-0.7%	u	10%	0.4	3%
COc1ccc(-n2nc(C(=O)NCC(=O)NCCC3=CCCCC3)c3ccccc3c2=O)c(OC)c1	0.2	-13%[15.4 µM]	x	10%	-16%	-2.9	2%
CC1(C(=O)NS(=O)(=O)c2ccc(F)cc2F)CCN1C(=O)CC1CCCCC1 (stereo not drawn)	x	x	-2.6%	-1.2%	x	-3.7	x
N#C/C(=C\c1ccc[nH]1)C(=O)Nc1ccccc1Cl	x	u	-0.7%	1.8%	10%	-3.0	32µM*
CC1CCN(c2ccc(/C=C(\C#N)c3nn(-c4ccccc4)c(N)c3C#N)cc2[N+](=O)[O-])CC1	5.6	11%	-1.3%	16%	16%	-5.4	4%
O=C(O)CCSc1nnc(-c2cccnc2)n1-c1ccccc1	2.5	-37%	0.0%	16%[38.3 µM]	13%	-3.1	15%
O=S(=O)(c1ccccc1F)N1CCN(C(=S)NCc2ccccc2)CC1	-3.8	19%[15.4 µM]	x	-0.1%	7%	1.7	x
Cc1ccc(CNC(=O)CCc2nc3ccccc3c(=O)[nH]2)cc1	3.5	u	1.1%	-1.2%	-1%	-3.8	-2%
CCOC(=O)C1=CCN(S(=O)(=O)c2ccccc2F)C1c1ccc(Cl)c(Cl)c1 (stereo not drawn)	x	x	0.1%	-0.4%	x	-2.0	x
COc1ccc(NC(=S)NCc2ccccc2Cl)c(OC)c1	-0.5	3%[15.4 µM]	-0.9%	1.1%	19%	3.9	7%
CCN(CC)c1ccc(NC(=O)CCNS(=O)(=O)c2ccc3c(c2)CCC(=O)N3)c(C)c1	0.4	-11%	-3.3%	0.1%	15%	5.0	-6%
Cc1ccc(S(=O)(=O)N2CCOCC2)cc1NC(=O)COC(=O)c1ccc(OCc2c(C)noc2C)cc1	-2.1	-1%	1.4%	-0.3%	4%	-1.4	-14%
COc1cc(S(=O)(=O)NCC2COCCO2)ccc1-n1cnnn1 (stereo not drawn)	0.5	1%	-5.6%	-0.4%[38.3 µM]	7%	-0.4	-4%
COc1ccc(N2CC(O)=C(c3nc(C)cs3)C2=N)cc1	2.0	-13%	-0.8%	-5.0%[38.3 µM]	9%	-2.6	-6%
Cc1cc([N+](=O)[O-])cnc1Sc1nccn1C	x	1%	0.4%	2.5%	12%	-4.6	9%
CCc1nc(SCC(=O)N2CCCc3ccccc32)c2oc3ccccc3c2n1	1.6	5%	-9.2%	x	1%	0.0	-12%
O=C(N/N=C/c1cccc2ccccc12)c1ccncc1	-1.6	0%	-0.2%	0.8%	-4%	7.9	-9%
O=C(Nc1ccc(Cl)cc1Cl)c1ccc(Br)o1	0.4	-19%[15.4 µM]	0.0%	0.1%	-2%	0.5	-38%
CCn1nc(C)c(CN2CCc3c([nH]c4ccccc34)C2C(C)(C)C)c1C (stereo not drawn)	2.4	-48%[inhibitor]	x	0.6%	12%	-1.5	-3%
O=C(N/N=C/c1ccccc1F)c1ccc(COc2ccccc2Cl)o1	x	15%	-5.4%	14%	28%	-6.7	-5%
CCN1C(=O)[C@H]2[C@@H](c3ccc(C)cc3)N3C(=O)N(c4cccc(C)c4)C(=O)[C@@]3(Cc3ccccc3)[C@H]2C1=O	-1.8	19%	4.6%	1.5%	8%	-2.6	-6%
COCCNC(=O)CSc1nc2cc3c(cc2c(=O)n1Cc1ccco1)OCO3	0.3	13%	-0.6%	x	1%	-1.7	-19%
CC1=C(C(=O)OCCOC(C)C)C(c2cccnc2)C2=C(CCCC2=O)N1 (stereo not drawn)	2.4	7%	u	-1.7%	22%	-2.0	4%
O=C(COc1ccc(F)cc1)NN1C(=O)CSC1=S	12	-5%[15.4 µM]	x	-0.6%	10%	1.4	-8%
O=C(Nc1ccc(Cl)cc1)Nc1nc(-c2sccc2Br)cs1	1.0	-3%	3.8%	23%	14%	2.5	-32%
COc1ccc(CN2C(=O)CCCc3ccccc32)cc1	-3.8	16%	x	4.1%	11%	3.3	1%
CCC1(CC)NC(=O)N(CC(=O)OCC(=O)Nc2ccccc2[N+](=O)[O-])C1=O	2.2	-6%[15.4 µM]	x	4.4%	-4%	13	3%
Cc1cc(=O)oc(C)c1C(=O)NCC1COc2ccccc2O1 (stereo not drawn)	4.2	-44%[inhibitor]	-4.7%	2.6%[38.3 µM]	-7%	0.4	4%
Cc1ccc(C(=O)n2cnnc2N)cc1C	-1.5	3%	4.2%	x	-4%	-2.0	0%
COc1ccc(C(=O)NCc2ncccc2C)cc1OC1CCN(C(C)=O)CC1	-4.6	-9%	-0.9%	-2.1%	13%	-5.7	-20%
CC(NC(=O)Cc1ccc(NS(=O)(=O)c2cccc(C(F)(F)F)c2)cc1)c1ccccn1 (stereo not drawn)	4.9	-5%[15.4 µM]	-2.5%	3.0%	3%	3.3	-13%
O=C(CNC(=O)c1ccccc1)OCC(=O)N1N=C(c2ccc(Cl)cc2)CC1c1ccco1 (stereo not drawn)	4.2	-22%	-0.3%	-1.3%	-9%	-3.7	15%
Cc1cccnc1NC(=O)Nc1cccc(F)c1	x	3%	-6.6%	-1.1%	x	-2.5	x
COc1cccc(Cn2nnc(C(=O)Nc3cc(Cl)ccc3OC)c2N)c1	-0.2	0%	u	3.9%	9%	-3.6	-13%
Cc1cccc(C)c1NC(=O)CNC(=O)Cc1ccc(Br)cc1	-4.6	-38%[inhibitor]	2.0%	0.8%	17%	1.2	8%
Nc1nc(-c2ccco2)nn1S(=O)(=O)c1ccc(Cl)cc1	-1.3	10%[15.4 µM]	x	0.3%	13%	-1.9	-8%
O=C(Nc1ccccc1Cl)c1cc(C2CCCCN2C(=O)c2cccs2)on1 (stereo not drawn)	x	x	2.8%	0.9%	x	-3.0	x
CCOC(=O)c1[nH]c(C)c(C(=O)NCCN2CCOCC2)c1C	0.8	-28%	-0.4%	1.1%	12%	-6.5	2%
CC(OC(=O)c1cc(-c2cccnc2)nc2ccccc12)C(=O)Nc1ccc2ccccc2c1 (stereo not drawn)	-0.6	-6%[15.4 µM]	-1.2%	3.3%	u	-7.4	-12%
CC(=O)c1cccc(NC(=O)C(C)OC(=O)CCC2CCCCC2)c1 (stereo not drawn)	x	u	0.7%	-0.6%	x	0.6	-14%
Cc1sc2nc(C)n(/N=C/c3ccccc3)c(=O)c2c1C	2.4	14%	1.2%	x	17%	-2.5	-7%
COCCN(CCOC)S(=O)(=O)c1ccc(OC)cc1	7.5	-21%	-2.8%	3.1%	-13%	-2.3	1%
CC(C)=CCc1cc([C@@H]2CC(=O)c3ccc(O)c(CC=C(C)C)c3O2)ccc1O	x	x	-4.6%	7.0%	x	2.5	-22%
COc1cccc(NC(=O)Nc2nnc(CC(=O)Nc3ccccc3)s2)c1	4.3	u	0.1%	21%	-12%	-3.2	-6%
COc1cc(C)c(Cl)c(C)c1S(=O)(=O)NCc1cccnc1	1.1	-7%	-5.2%	-0.3%	9%	1.3	-22%
O=C(CS(=O)(=O)c1ccc2ccccc2c1)N1CCCCCC1	0.4	11%[15.4 µM]	x	-0.8%	17%	-4.8	1%
O=C1OC(c2ccccc2)(c2cc(Br)c(O)c(Br)c2)c2ccccc21 (stereo not drawn)	x	-52%[inhibitor]	x	-0.3%	x	-3.4	18%
COc1ccc(CN(CCNC(=O)CCCCC(=O)NCCN(Cc2ccc(OC)cc2)C(C)C)C(C)C)cc1	x	14%	-3.9%	5.7%	x	-7.2	3%
COc1ccc(-n2c(Cc3cccn3C)nnc2SCC(=O)Nc2ccc3c(c2)OCO3)cc1	1.1	-34%[inhibitor]	0.0%	2.5%	-9%	14	-5%
N#Cc1ccccc1/C=C/C(=O)N1CCOCC1	0.5	0%[15.4 µM]	1.3%	-0.9%	14%	-3.6	3%
COc1ccc(NC(=O)C2(C)Cc3c(-c4cccc(C(N)=O)c4)ccnc3O2)cn1 (stereo not drawn)	x	x	-3.4%	18%	x	13	x
N/C(=N\OC(=O)COc1ccc(Br)cc1Cl)c1ccncc1	-0.9	-1%	-3.1%	3.1%	-31%	-1.0	3%
Cc1ccc(-c2c(C(=O)N/N=C/c3ccc(C)o3)nnn2-c2nonc2N)cc1	x	-3%	-6.5%	-2.4%	50µM*	-3.9	0%
NS(=O)(=O)c1ccc(NC(=O)COC(=O)C23CC4CC(CC(C4)C2)C3)cc1	3.4	-15%	0.9%	4.9%	9%	2.4	-2%
COc1ccc(NC(=O)CC(C)=O)c(OC)c1	-0.6	-25%	-0.6%	1.9%	9%	-0.9	0%
CC(OC(=O)c1ccco1)C(=O)NCc1cccs1 (stereo not drawn)	0.6	8%	-1.2%	1.5%	3%	-3.1	12%
CN(c1ccccc1)S(=O)(=O)c1cccc(NS(=O)(=O)c2cccc(C(=O)O)c2)c1	x	-9%	-1.5%	-1.7%	x	-1.8	1%
Cc1ccc(NC(=S)NNC(=O)c2cn(C)nc2C)cc1	2.6	u	0.6%	1.3%	0%	-5.6	0%
N#Cc1c(N)c(C#N)c(-c2ccc(O)cc2)c2c1CCCC2	0.8	-23%	22µM*	4.9%	-5%	-0.8	3%

In the list so far, 2 have a tert-butyl group.
SMILES	Menin-MLL FL inh	gsp agonist	ClpP mod	PINK1 modulator	Sfp inh	D2 agonist	gsp antag
CC(C)(C)SCCNC(=O)CN(c1ccc(F)cc1)S(C)(=O)=O	10	1%	-0.7%	u	10%	0.4	3%
CCn1nc(C)c(CN2CCc3c([nH]c4ccccc34)C2C(C)(C)C)c1C (stereo not drawn)	2.4	-48%[inhibitor]	x	0.6%	12%	-1.5	-3%
